VACV Venus inh: qHTS for Stage-Specific Inhibitors of Vaccinia Orthopoxvirus: Venus Reporter Primary qHTS; 330,000 tested, 0.46% active; Vaccinia virus Venus reporter expression, fluorescence; Potency, µM (titrated, usually from 36.5 µM), for the others: top-dose activity change, negative = inhibition, usual class: inhibitors; active means well fitted inhibition curve with a large enough effect; inconclusive means small, poorly fitted or top-dose-only effect; inactive means no such curve, though single readings can be large or run the other way; tested in A549 cells; also: nearly all actives have a fitted effect of over 30% in size; inactives centre near -10
VACV mCherry inh: qHTS for Stage-Specific Inhibitors of Vaccinia Orthopoxvirus: mCherry Reporter Primary qHTS; Vaccinia virus mCherry reporter infection, fluorescence; about a quarter of the inactives have no number; Potency, µM (top dose mostly 36.5 µM), for the others: at the highest dose activity change, negative = inhibition, usual class: inhibitors; 310,000 tested, 0.63% active; AID 720579, 2013; active = well fitted inhibition curve with a large enough effect; inconclusive = small, poorly fitted or top-dose-only effect; inactive = no such curve, though single readings can be large or run the other way; tested in A549 cells; also: nearly all actives have a fitted effect of over 35% in size; inactives centre near -10
An asterisk follows results filed as active; i = inactive; ? = inconclusive; . = not tested or not shown; & = joins results of further samples; [ ] = remark or other dose. % is scaled to controls: 0 for no effect and ±100 for the full control effect; potency is read from the fitted curve at half-maximal effect.

Sequence of screens: VACV Venus inh | VACV mCherry inh
O=C(NC12CC3CC(CC(C3)C1)C2)c1cc(F)c(F)cc1Cl
    -10.9% | -20.3%
COc1ccc(CNC(=O)CN2C(=O)CSc3ccc(S(=O)(=O)N4CCOCC4)cc32)c(OC)c1
    -5.2% | -13.3%
C/C(=N\OCC(=O)NC12CC3CC(CC(C3)C1)C2)c1cc2ccccc2o1
    -25.8% | i
CC(C)C[C@H]1CN=C(Nc2ccccc2)N1CCc1ccc(F)cc1
    -28.1% | i
COc1ccc(NC(=O)c2c(C)nn(-c3ccccc3)c2Cl)cc1
    -7.9% | -15.0%
Cc1cc(C)c(S(=O)(=O)N2CCC3(CC2)OCCN3S(=O)(=O)c2cccs2)c(C)c1
    -18.9% | -0.2%
O=C(O)Cn1ccnc1[N+](=O)[O-]
    -9.0% | i
CCOC(=O)N1CCC(Nc2c(NCCCN(CC)CC)c(=O)c2=O)CC1
    -0.2% | 15.8%
CCNC(=S)Nc1cc(OCC)c(NC(=O)c2ccco2)cc1OCC
    -13.4% | -13.3%
COC(C[C@H]1O[C@@H]1[C@@H](O)[C@H](C)OCc1ccccc1)OC
    -4.1% | i
COC(=O)c1ccc(Cl)cc1NC(=O)N(Cc1ccc(C)o1)C1CCN(C(C)=O)CC1
    10.6% | 4.6%
COc1ccccc1-c1nnn(CC#N)n1
    2.1% | -2.9%
CC1=C(C(=O)Nc2ccc(Cl)cc2)C(c2ccccc2C)n2ncc(C(=O)Nc3ccc(C)cc3)c2N1 (stereo not drawn)
    -11.7% | -3.2%
O=C1[C@H](O)[C@@H](O)C(=O)N1Cc1ccccc1
    -10.8% | -12.4%
CC(C)(Oc1ccc(C2CC2(Cl)Cl)cc1)C(=O)O (stereo not drawn)
    -9.9% | i

Next section:
Sequence of screens: VACV Venus inh | VACV mCherry inh
C#CCN(C[C@H]1[C@H](OC(=O)NCc2ccccc2)[C@H](OC(=O)NCc2ccccc2)C[C@H]2C(=O)N(c3ccccc3)C(=O)[C@@H]12)S(=O)(=O)c1ccc(C)cc1
    -21.1% | -23.8%
C=CCn1c(SCc2nc3scc(-c4ccccc4)c3c(=O)[nH]2)nnc1-c1ccccc1F
    -11.4% | -17.7%
Cc1ccccc1OCC(=O)Nc1ccc2nc(SCc3ccccc3)sc2c1
    6.9% | i
Nc1nc2ccccc2n1CCN1CCCC1
    -12.9% | i
O=C(Nc1ccc2oc(-c3cccnc3)nc2c1)c1ccc(-c2cccc(Cl)c2)o1
    -27.5% | ?
CCN(CC)CCCNc1sc(S(=O)(=O)c2ccccc2)nc1S(=O)(=O)c1ccc(Cl)cc1
    -12.3% | -22.0%
COc1ccc(/C=N/NC(=O)CN(CCc2ccccc2)S(=O)(=O)c2ccc(NC(C)=O)cc2)cc1OC
    -5.9% | i
O=c1[nH]c2ccccc2n1C1CCN(C(c2ccccc2)c2nnnn2Cc2ccccc2)CC1 (stereo not drawn)
    -22.7% | -22.8%
COCCN(C(=S)Nc1ccccc1OC)C1CCN(C(C)C)CC1
    2.2% | -0.4%
COC(=O)NCC(c1ccco1)N1CCN(c2ccc(OC)cc2)CC1 (stereo not drawn)
    -2.9% | -5.6%
O=C(NNC(=O)c1cccc(O)c1)Nc1ccc([N+](=O)[O-])cc1
    -10.3% | ?
CCOc1ccc(C(CN2CCOCC2)C(C)=O)cc1OC (stereo not drawn)
    -5.2% | 24.4%
COc1nc(C)ccc1-c1noc(-c2cccs2)n1
    -7.8%[7.34 µM] | i[7.34 µM]
Cc1ccc(S(=O)(=O)NC(Cc2cnc[nH]2)C(=O)O)cc1 (stereo not drawn)
    -6.2% | i
Cc1ccc(-n2ncc3c2CC(C)(C)CC3NC(=O)CCc2c(C)noc2C)cc1 (stereo not drawn)
    -14.2% | -4.1%

Next structures follow:
Sequence of screens: VACV Venus inh | VACV mCherry inh
COc1ccc(S(=O)(=O)Nc2ccccc2C(=O)N2CCOCC2)cc1F
    -11.0% | i
COc1cc(CN(C(=O)c2cccc(Cl)c2)c2ccccn2)cc(OC)c1OC
    -2.2% | -11.1%
COc1cc(Cl)c(C)cc1NC(=O)c1cn(C2CCCC2)c(=O)c2c1c1ccccc1n2C
    -13.1% | -3.4%
COc1cccc(C(=O)NCCS(=O)(=O)N2CCCC(C)C2)c1 (stereo not drawn)
    -6.9% | -2.2%
O=C(CCn1ccc2cc(S(=O)(=O)N3CCCC3)ccc21)NCc1ccccc1Br
    -0.9% | 0.1%
Fc1ccc(NCc2cccn2-c2nnc(N3CCOCC3)s2)cc1
    -0.4% | -6.7%
Cc1ccccc1S(=O)(=O)N(C)C[C@@H]1OCc2cnnn2CCCC(=O)N([C@H](C)CO)C[C@H]1C
    -11.2% | -5.1%
CC1CN(Cc2nc3c(c(=O)n(C)c(=O)n3C)n2CC(=O)c2ccccc2)CC(C)O1 (stereo not drawn)
    -9.7% | -17.4%
COc1cccc(C(=O)Nc2nc3c(c(=O)[nH]2)CCCC3)c1
    -11.6% | -13.1%
C/C(=N/NC(=O)c1cccs1)c1cccs1
    -1.9% | i
CCOC(=O)c1c(S(=O)(=O)N2CCCC(C(=O)NCc3cccc(OC)c3)C2)c(C)n(C)c1C (stereo not drawn)
    -9.7% | -13.2%
CCOc1ccc(S(=O)(=O)N2CCC(C(=O)N3CCCCCC3)CC2)cc1Cl
    -28.6% | -19.0%
CCc1ccc2nc(N(Cc3cccnc3)C(=O)Cc3ccccc3)sc2c1
    -6.5% | i
COc1ccccc1OCCNC(=O)C(CCSC)NS(=O)(=O)c1ccccc1F (stereo not drawn)
    -8.3% | -9.7%
CC1CCCC(NC(=O)CCNC(=O)c2ccc(Cl)cc2)C1C (stereo not drawn)
    -6.1% | -8.2%

Other records:
Sequence of screens: VACV Venus inh | VACV mCherry inh
Cc1cc2oc(=O)cc(CN3CCCCC3)c2cc1Cl
    -5.4% | 3.6%
COc1cc(OC)cc(-c2c(C#Cc3ccsc3)c3cc(-c4ccc(N(C)C)nc4)ccc3n2C)c1
    -17.5% | ?
CCN1CCN(C(=O)c2ccc3nc(-c4ccccc4)c(-c4ccccc4)nc3c2)CC1
    -21.5% | -28.6%
COc1cccc(Cn2c3ccc(NC(=O)Cc4cc(OC)ccc4OC)cc3c(=O)n2C)c1
    -25.7% | -7.2%
CCOC(=O)c1c(NC(=O)COC(=O)Cn2cnc3ccccc32)sc2c1CCC(C)C2 (stereo not drawn)
    ? | ?
C/C(O)=C(\C#N)C(=O)Nc1cc(Br)ccc1Br
    -10.1%&-8.3% | -16.1%
CNc1ccc(/C=C2\CSc3ccccc3C2=O)cc1[N+](=O)[O-]
    -0.6% | 3.3%
COc1ccc(-c2nnn(CC(=O)NC3CCCc4ccccc43)n2)cc1OC (stereo not drawn)
    -17.1% | -17.1%
CCCCCCCCn1ccc(=N)cc1
    -11.7% | -14.9%
NNC(=O)c1cc(Br)cs1
    6.9% | -15.8%
O=C(NCc1ccco1)C1CCCN(S(=O)(=O)c2cccc3nsnc23)C1 (stereo not drawn)
    -17.5% | i
O=C(OC1CCOC1=O)c1cc(S(=O)(=O)N2CCOCC2)c(Cl)cc1Cl (stereo not drawn)
    -8.5% | i
O=C(CCc1c[nH]c2ccccc12)OCc1cccc([N+](=O)[O-])c1
    -16.2% | -18.3%
O=C(NC1CC1)c1ccc2c(c1)ncn2C1CCCC1
    -8.6% | -2.0%
OCC1OC(n2cnc3c(SCc4ccccc4)nc(F)nc32)C(O)C1O (stereo not drawn)
    -9.9% | -20.5%

Shown field by field: part of the list above.
Structure: CCN1CCN(C(=O)c2ccc3nc(-c4ccccc4)c(-c4ccccc4)nc3c2)CC1
  VACV Venus inh = -21.5% | VACV mCherry inh = -28.6%

Structure: COc1cccc(Cn2c3ccc(NC(=O)Cc4cc(OC)ccc4OC)cc3c(=O)n2C)c1
  VACV Venus inh = -25.7% | VACV mCherry inh = -7.2%

Continuation.
Sequence of screens: VACV Venus inh | VACV mCherry inh
CCN1C(=O)c2ccccc2S(=O)c2ccc(C(=O)NC3CC3)cc21 (stereo not drawn)
    -6.5% | 6.2%
COc1ccc(Cn2c(=O)c3oc4ccccc4c3n(Cc3ccc(Cl)cc3)c2=O)cc1
    -7.5% | -11.8%
O=C(Nc1cccc(NC(=O)c2cccnc2)c1)c1ccccc1
    -12.3% | i
CC(C)C(OC(=O)C1=Cc2ccccc2OC1)C(=O)NCC1CCCO1 (stereo not drawn)
    1.8% | -7.1%
CCC(C)(C)n1nnnc1C(c1cccnc1)N1CCCc2ccccc21 (stereo not drawn)
    -8.5% | ?
CN(C(=O)CSc1nnc(-c2ccc([N+](=O)[O-])cc2)o1)C1CCCCC1
    0.7% | 1.4%
CC(C)NC(=O)C1(C)CN(S(C)(=O)=O)CC(=O)N1Cc1ccco1 (stereo not drawn)
    0.1% | -0.1%
COC(=O)c1c(-c2ccc(C(C)(C)C)cc2)csc1NC(=O)C1C2CCC(O2)C1C(=O)O (stereo not drawn)
    -5.8% | -14.1%
Cc1nnc(N2CCOCC2)c2nn(-c3cccc(Cl)c3)c(C)c12
    ? | ?
CC(C)(C)P(=O)(N1CCOCC1)N1CCOCC1
    -8.8% | i
COc1cccc(C2c3[nH]c4ccccc4c3C[C@H]3C(=O)N(c4ccccc4C(=O)N4CCC(C(=O)O)CC4)C(=O)N23)c1 (stereo partly drawn)
    -8.2% | -14.4%
CCOCCc1nnc(NC(=O)C(=O)c2cc(C)n(-c3ccc(C)c(C)c3)c2C)s1
    -8.1% | -21.2%
COc1ccc(OC)c(/C=C2\C=Cc3ccccc32)c1
    -18.2% | 13.1%
CC(=O)Oc1ccccc1/C=C/c1nc2ccccc2c(=O)o1
    -8.5% | i
CC(C)C[C@H]1CN([C@@H](Cc2ccccc2)CN2CCC[C@H]2CN2C(=O)C(=O)NC[C@@H]2Cc2ccc(O)cc2)C(=O)C(=O)N1CC1CCCCCC1
    -4.1% | 6.3%

Next records:
Sequence of screens: VACV Venus inh | VACV mCherry inh
O=C1c2ccccc2S(=O)(=O)c2cc(C(=O)N3CCN(C(=O)c4ccccc4)CC3)ccc21
    -17.2% | -12.5%
COC(=O)Nc1nnc(CC(=O)Nc2ccccc2C)s1
    -3.0% | i
Cn1c(-c2csc(-c3ccccc3)n2)n[nH]c1=S
    -10.4% | -4.2%
COc1ccccc1NC(=O)c1ccc(S(=O)(=O)N2CCC(C)CC2)cc1
    -29.2% | -21.2%
CCOc1ccc(CCNC(=O)c2nnc(Cc3ccc(Cl)cc3Cl)o2)cc1OCC
    -9.6% | -9.3%
O=C(O)Cc1ccc(C(=O)c2cccs2)s1
    -5.5% | -1.4%
Cc1ccc(NC(=O)Cn2c(=O)n(-c3ccccc3)c(=O)c3ccc(C(=O)NCc4ccc5c(c4)OCO5)cc32)c(C)c1
    -0.2% | -1.2%
Cc1cc(Cl)ccc1OCCCC(=O)Nc1ccc(S(=O)(=O)Nc2ncccn2)cc1
    -5.8% | -22.6%
O=C(OCC(=O)C12CC3CC(CC(C3)C1)C2)c1cccnc1Cl
    -4.9% | -3.5%
CN1CSC(=S)N(C)C1
    21.4% | -12.9%
CCOc1ccc(C(=O)Nc2ccc3nc(SCC(=O)N(C)c4ccccc4)sc3c2)cc1
    -18.5%[7.34 µM] | -16.9%[7.34 µM]
CCCCN1CC(COCc2ccccc2)Oc2cccc(F)c2S1(=O)=O (stereo not drawn)
    -18.3% | -18.8%
O=C(Oc1cc2oc(=O)cc(-c3ccccc3)c2cc1Cl)C1CCCCC1
    -14.1% | .
CC1Oc2ccccc2N(CC(=O)NC2CC2)C1=O (stereo not drawn)
    -6.7% | i
Cc1ccc(NC(=O)CSc2nnc(C)c(=O)n2N)cc1Cl
    -14.5% | -6.2%

The results go on.
Sequence of screens: VACV Venus inh | VACV mCherry inh
O=C(O)c1cccc(N/N=C/c2cccc3ccccc23)c1
    -0.6% | -3.1%
COc1ccccc1NC(=O)CCSc1nnc(-c2ccc(O)cc2)o1
    -13.0% | ?
Cc1ccc(CC(=O)Nc2nc3c(s2)CCCC3)cc1
    -6.1% | 8.91µM*
Cc1ccc(C(=O)Nc2ccc(OCc3ccccc3)cc2)s1
    -13.7% | i
CCCS(=O)(=O)NC(=O)C1(C)CCCN(C(=O)c2cc(-c3ccccc3)cs2)C1 (stereo not drawn)
    -9.8% | 31.9%[activator]
CCCCSc1nnc(-c2ccc(NC(=O)CC)cc2)n1C
    -17.8% | -4.8%
O=C1CC(NNc2ccccc2)C(=O)N1c1ccc(N2CCCCC2)cc1 (stereo not drawn)
    -9.5% | -14.3%
c1ccc2[nH]c(-c3ccncc3)nc2c1
    2.4% | 6.6%
CSc1nc2ccc(Br)cc2[nH]1
    -14.1% | -4.3%
COc1ccc(OC)c(-c2cc(C(=O)N/N=C/c3ccc(F)cc3)c3ccccc3n2)c1
    -2.7% | -3.3%
Cn1cnnc1SCC(=O)Nc1ccc(Oc2ccccc2)cc1
    -3.5% | i
CCN(CC)CCCNC(=O)Cn1cnc2sc(C)c(S(=O)(=O)N3CCN(c4ncccn4)CC3)c2c1=O
    -6.8% | -5.2%
O=C(CNC(=O)c1ccccc1)NCc1nc2ccccc2[nH]1
    2.7% | -11.5%
O=C(Nc1c(F)cccc1F)c1ccc(-n2cncn2)nc1
    -2.4% | .
CN(C)c1ccc(/C=C2\CCC/C(=C\c3ccccc3)C2=O)cc1
    3.1% | i
C=C(c1ccccc1)c1ccccc1N
    -7.1% | i
CCCCn1c(N)c(N(CCOC)C(=O)CCNC(=O)c2ccc(Br)cc2)c(=O)[nH]c1=O
    -5.8% | -11.8%
COc1ccc([C@@H]2[C@@H]3C(=O)N(C(C)(C)C)C(=O)[C@@H]3[C@]3(C)C(=O)N(c4ccc(C(F)(F)F)cc4)C(=O)N23)cc1
    -13.5% | i
